Cruzain inh noDet – blocks cruzain activity in detergent-free assay. purified cruzain, Z-FR-AMC fluorescence, no detergent. P25779. Potency, µM, inactives show max response, negative = inhibition, actives largely listed as inhibitors. hit rate 2.3% among 200,000. AID 1476;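 also: plate controls were enzyme without inhibitor for no effect and buffer without enzyme for full effect; nearly all actives have a fitted effect of over 40% in size; top concentration of the series not given in the record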
Target sequence (P25779 123-467 limits assumed): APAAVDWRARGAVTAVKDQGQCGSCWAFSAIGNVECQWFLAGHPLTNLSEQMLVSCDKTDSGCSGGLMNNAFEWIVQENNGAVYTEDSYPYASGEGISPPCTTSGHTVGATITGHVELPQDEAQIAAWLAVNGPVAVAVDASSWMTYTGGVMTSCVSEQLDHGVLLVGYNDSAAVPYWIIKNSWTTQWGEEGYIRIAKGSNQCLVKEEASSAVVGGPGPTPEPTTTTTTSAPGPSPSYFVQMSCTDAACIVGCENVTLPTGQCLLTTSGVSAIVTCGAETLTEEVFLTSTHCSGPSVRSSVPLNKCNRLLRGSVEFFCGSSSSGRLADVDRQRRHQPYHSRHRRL
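Detergent-free condition (0.00005% Triton X-100) in acetate buffer pH 5.5 with DTT. 1.5 nM enzyme and compound were pre-mixed 15 min, then 2 uM Z-FR-AMC substrate added; reaction progress from fluorescence change between first and third reads (60 s).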
SARS PLpro yeast – inhibitors of SARS-CoV papain-like protease in yeast | hit rate 0.19% among 330,000 | S. cerevisiae expressing SARS-CoV PLpro, growth rescue; control for the full effect not named in the record | Potency, µM (series often up to 32.9 µM), for the others: at the top dose activity, positive = growth rescue; active means well fitted rising curve with a large enough effect; inconclusive means small, poorly fitted or top-dose-only effect; inactive means no such curve, though single readings can be large or run the other way; also: 0% is about no effect; nearly all actives have a fitted effect of over 55% in size; growth read by luminescence after 48 h
StopGo reporter – lowers the luciferase signal of an FMDV 2A StopGo reporter | Potency, µM (highest dose often 57.9 µM), without a hit: at the highest dose signal change, negative = less light | hit rate 1.2% among 410,000 | AID 1159524 | human cells with a luciferase reporter of 2A StopGo recoding; control for the full effect not named in the record; active = well fitted falling curve with a large enough effect; inconclusive = small, poorly fitted or top-dose-only effect; inactive = no such curve, though single readings can be large or run the other way; tested in HEK293T cells; also: % is scaled to controls: 0 for no effect and ±100 for the full control effect; nearly all actives have a fitted effect of over 45% in size; luciferase light after 4 h
MARV entry inh – blocks Marburg virus binding to or entry into cells. Marburg virus pseudotyped entry inhibition, cell reporter; control for the full effect not named in the record; about a third of the inactives were read at about 46 µM. hit rate 1.8% among 300,000. Potency, µM (titrated, usually from 37.8 µM), for inactives: at the highest dose activity change, negative = inhibition, actives largely listed as inhibitors; active = well fitted inhibition curve with a large enough effect; inconclusive = small, poorly fitted or top-dose-only effect, or effect the other way; inactive = flat fitted curve, though single readings scatter; tested in HEK293 cells; about a fifth of its hits are not listed in these tables; also: % is scaled to controls: 0 for no effect and ±100 for the full control effect; luciferase read-out
RE007 growth inh – less growth of the S. pombe RE007 Vpr strain; S. pombe RE007 Vpr strain, BacTiter-Glo ATP luminescence, 24 h; control for the full effect not named in the record; Potency, µM (highest dose often 92.2 µM), for inactives: top-dose activity change, negative = less growth; hit rate 0.21% among 360,000; AID 651644; active = well fitted falling curve with a large enough effect; inconclusive = small, poorly fitted or top-dose-only effect; inactive = no such curve, though single readings can be large or run the other way;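 also: % is scaled to controls: 0 for no effect and ±100 for the full control effect; nearly all actives have a fitted effect of over 50% in size; the assay follows cell death caused by Vpr and the record does not say whether a fall means rescue or toxicity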
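Fission yeast RE007 carrying one integrated HIV-1 vpr copy, seeded at OD 0.01 in PMG+AL medium with 23 nL pinned compound. Grown 24 h at 30 degrees; viability read by BacTiter-Glo luminescence after 5 min.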
NS1 function inh – blocks influenza NS1 protein function | S. cerevisiae slowed by influenza A NS1, growth recovery by OD600 | Potency, µM (titrated, usually from 46.1 µM), for inactives: at the highest dose activity, positive = more growth | hit rate 0.4% among 270,000 | AID 2326; active means well fitted rising curve with a large enough effect; inconclusive means small, poorly fitted or top-dose-only effect; inactive means no such curve, though single readings can be large or run the other way; also: nearly all actives have a fitted effect of over 50% in size
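S. cerevisiae expressing influenza A NS1, grown in glucose, washed, then diluted 1:100 into pH 6.0 -URA galactose medium with 23 nl compound. Growth recovery read as OD600; NS1-free strain serves as control.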
Cruzain inh Det – blocks cruzain activity in presence of Triton detergent | hit rate 0.43% among 200,000 | AID 1478 | purified cruzain, Z-FR-AMC fluorescence, 0.01% Triton | Potency, µM, for the others: max response, negative = inhibition, actives largely listed as inhibitors | P25779;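 also: plate controls were neutral wells for no effect and buffer without enzyme for full effect; nearly all actives have a fitted effect of over 40% in size; top concentration of the series not given in the record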
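Read-out: AMC fluorescence (360 nm excitation, 450 nm emission), four reads over 2 min, first-to-third difference used. Conditions: cruzain 1.5 nM, Z-FR-AMC 2 uM, pH 5.5 acetate, 5 mM DTT, 0.01% Triton X-100.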
Lassa entry inh – Lassa virus entry inhibition; Lassa virus pseudotype entry inhibition, cell reporter; control for the full effect not named in the record; Potency, µM (highest dose often 37.9 µM), for inactives: at the highest dose activity change, negative = inhibition, most hits filed as inhibitors; hit rate 1.2% among 300,000; active means well fitted inhibition curve with a large enough effect; inconclusive means small, poorly fitted or top-dose-only effect, or effect the other way; inactive means flat fitted curve, though single readings scatter; tested in HEK293 cells; also: % is scaled to controls: 0 for no effect and ±100 for the full control effect; nearly all actives have a fitted effect of over 50% in size; luciferase read-out
Starred values were filed as active, the others as inactive; u = inconclusive; x = not tested or not shown; & = joins results of further samples; [ ] = dose if it differs, or a comment. Unless noted, calls follow the shape of the dose curve; as a rule, active = well fitted curve in the direction sought with a large enough effect; inconclusive = small, poorly fitted or top-dose-only effect, or another doubt; inactive = no such curve, though single readings can be large; an effect the other way counts as inactive or inconclusive. Potency is read from the fitted curve at half-maximal effect. Random draw from the library. Share with any hit: about 4.8%.

SMILES | Cruzain inh noDet | SARS PLpro yeast | StopGo reporter | MARV entry inh | RE007 growth inh | NS1 function inh | Cruzain inh Det | Lassa entry inh
Cn1c(SCC(=O)N2CCCc3ccccc32)nnc1-c1ccco1 | 6% | -2% | -8% | u | 15% | 1% | 3.9% | -20%
CC(C)n1c(NCc2nc3ccccc3n2C)nc2ccccc21 | 7% | -8% | -11% | -6% | 0% | -2% | 1.9% | 17%
CN1CCCCCC1C(=O)N1CCC(N2CCC(C(=O)N3CCOCC3)CC2)CC1 (stereo not drawn) | x | 1% | -10% | 10%[46.1 µM] | 0% | -1% | x | -7%
COCCCn1c(SCc2nnc(-c3ccc(OC)c(OC)c3)o2)nnc1-c1ccncc1 | -11% | 23% | -16% | -1% | -10% | 9% | -1.8% | 2%
COc1ccc([C@@H]2[C@@H](C(=O)C(C)(C)C)N3N=Cc4ccccc4[C@@H]3C23C(=O)OC(C)(C)OC3=O)cc1OC | 3% | 3% | 35%[activator] | 2% | -12% | u | -1.6% | 3%
COC(=O)c1ccc(C(=O)N2CCCC(N3CCN(c4ccccc4)CC3)C2)nc1 (stereo not drawn) | x | -1% | 0% | u | -5% | -3% | x | 3%[46.1 µM]
NS(=O)(=O)c1ccc(CCNC(=O)CNC(=O)C2CCCCC2)cc1 | 2% | 18% | 3% | 11% | -8% | -57% | -2.5% | 6%
O=C(NC1CCCCCC1)C1CCCN(c2ncccn2)C1 (stereo not drawn) | x | 5% | 20% | -3%[46.1 µM] | 7% | 1% | x | 22%[46.1 µM]
Cc1noc(C)c1COc1ccccc1C(=O)N1CCN(S(=O)(=O)c2cccc([N+](=O)[O-])c2)CC1 | x | 7% | 1% | 4% | -8% | x | x | -4%
CC(=O)NC(Cc1ccc(N(CCCl)CCCl)cc1)C(=O)NC(CC(C)C)C(=O)O (stereo not drawn) | x | 0% | -8% | 0%[46.1 µM] | -7% | 7% | x | -29%
CCC(=O)N=c1ccn(C2=Nc3ccccc3NC2=C(C#N)C#N)cc1 | x | -1% | -13% | 15% | 22% | -3% | x | 3%
COc1ccc(/C=C/C(=O)Nc2ccccc2F)cc1S(=O)(=O)N1CCOCC1 | x | -11% | 25µM* | u | 13% | x | x | u
Cc1ccc2nc(Nc3ccc(C)c(C)c3)c3nncn3c2c1 | x | 0% | 17% | -8% | -2% | -2% | x | x
OC(CNCCCCNCC(O)C(F)(F)F)C(F)(F)F (stereo not drawn) | x | 0% | 2% | -23%[46.1 µM] | -11% | 5% | x | 3%[46.1 µM]
O=C(Nc1cccs1)NC1CCCC1 | -16% | 0% | 25% | -11% | 22% | -1% | -1.7% | 6%
COC(=O)c1nc(NC(=S)NC(=O)c2cccs2)sc1C | x | -5% | 39%[activator] | u | -8% | -6% | x | 12%
COc1cccc(OC)c1C(=O)N1CCN(S(=O)(=O)c2ccc(C)cc2)CC1 | 16% | x | 6% | 0%[46.1 µM] | -3% | 5% | 1.6% | -7%
Cc1nn(-c2ccccc2)c(C)c1/C=C/C(=O)OC(C)C(=O)Nc1ncc(Cl)cc1Cl (stereo not drawn) | -1% | -8% | 0% | -26% | 3% | -10% | -6.6% | -22%
CCOCCCNC(=S)N1CCC(NC(=O)C23CC4CC(CC(C4)C2)C3)CC1 | x | 1% | -6% | 9% | -12% | x | x | -5%
COc1ccc(OC)c(NC(=O)CSc2nc(=O)n(CCN(C)C)c3c2CCC3)c1 | -4% | x | -11% | x | x | x | -0.1% | 20%[46.1 µM]

A different layout for some results above:
Second line of a record – Cruzain inh noDet | SARS PLpro yeast | StopGo reporter | MARV entry inh | RE007 growth inh | NS1 function inh | Cruzain inh Det | Lassa entry inh
- CC(=O)NC(Cc1ccc(N(CCCl)CCCl)cc1)C(=O)NC(CC(C)C)C(=O)O (stereo not drawn)
→ x | 0% | -8% | 0%[46.1 µM] | -7% | 7% | x | -29%
- CCC(=O)N=c1ccn(C2=Nc3ccccc3NC2=C(C#N)C#N)cc1
→ x | -1% | -13% | 15% | 22% | -3% | x | 3%
- COc1ccc(/C=C/C(=O)Nc2ccccc2F)cc1S(=O)(=O)N1CCOCC1
→ x | -11% | 25µM* | u | 13% | x | x | u
- Cc1ccc2nc(Nc3ccc(C)c(C)c3)c3nncn3c2c1
→ x | 0% | 17% | -8% | -2% | -2% | x | x

New compounds follow.
SMILES | Cruzain inh noDet | SARS PLpro yeast | StopGo reporter | MARV entry inh | RE007 growth inh | NS1 function inh | Cruzain inh Det | Lassa entry inh
Cc1ccsc1C(=O)NNC(=S)NC1CCCCC1 | x | -2% | 50%[activator] | x | 4% | 15% | x | x
c1ccc2nc(N3CCN(Cc4ccc5c(c4)OCO5)CC3)cnc2c1 | x | 1% | -15% | -22%[46.1 µM] | -19% | 2% | x | -3%
CC(NC(=O)Cc1c(F)cccc1Cl)C1CCCO1 (stereo not drawn) | -3% | 16% | -4% | 5% | -3% | 9% | 4.5% | -7%
Cc1ccccc1NC(=O)Cn1cnc2c(oc3ccccc32)c1=O | 8% | -1% | -7% | -1% | 14% | -6% | 4.2% | 5%
CC(=O)N1CCc2cc(Br)cc(S(=O)(=O)N3CCN(c4cc(C)ccc4C)CC3)c21 | -11% | x | -8% | 21%[46.1 µM] | x | x | 1.7% | 13%[46.1 µM]
FC(F)(F)c1cccc(NC(=S)NCC2COc3ccccc3O2)c1 (stereo not drawn) | -20% | -71% | 80%[activator] | -3% | 6% | -32% | -8.4% | u
COC(=O)c1ccccc1NC(=O)Cn1c(-c2nonc2N)nc2ccccc21 | -5% | 1% | -5% | u | 0% | 13% | 1.8% | -13%
C[C@@H]1CCN=C(N)S1 | 2% | x | -8% | u | x | x | -3.1% | x
O=C(c1ccc(Cl)cc1)n1nc(-c2ccco2)nc1NCc1cccs1 | -17% | x | 17% | u | x | x | -1.1% | u
COc1cc(SC)ccc1C(=O)Nc1ccc2c(c1)OCO2 | x | -1% | 10% | u | -8% | -3% | x | u
CS(=O)(=O)NCC(c1ccco1)N1CCN(c2ccc(F)cc2)CC1 (stereo not drawn) | 13%&1% | 16% | -6%&0% | 1%&1% | -3% | 8% | 0.4%&-0.8% | 20%[46.1 µM]
COc1ccc(N2CCN(C(=O)C3CCCN(S(=O)(=O)c4ccc(F)cc4)C3)CC2)cc1 (stereo not drawn) | x | 0% | u | -10% | -11% | 12% | x | -19%
CC(C=NNc1ccc([N+](=O)[O-])cn1)=Cc1ccccc1 | x | x | 5% | 8%[46.1 µM] | 3% | x | x | u
Cc1cc(C)cc(N(C(=O)c2csnn2)C(C(=O)NC2CCCC2)c2ccccn2)c1 (stereo not drawn) | x | 0% | 2% | u | 36% | 8% | x | u
O=C(CCC(=O)OCc1ccc([N+](=O)[O-])cc1)Nc1ccc(F)cc1 | x | -1% | -6% | x | -19% | -3% | x | x
Cc1cn2c(=O)cc(COc3ccccc3NC(=O)c3ccco3)nc2s1 | 4% | x | -17% | -3%[46.1 µM] | x | x | 0.9% | -12%[46.1 µM]
COc1ccc(-c2noc(CCC(=O)NC3CCCCC3)n2)cc1 | x | 13% | 2% | x | -15% | -10% | x | x
CC(C)c1ccc(N2C=Nc3ccc(C(C)C)cc3C2)cc1 | x | 2% | u | u | -19% | -10% | x | u
Cc1cc(C)n(-c2nnc(Nc3ccc(C)c(Cl)c3)c3ccccc23)n1 | -8% | x | 0% | -4%[46.1 µM] | x | x | -12% | 3%[46.1 µM]
CSc1ccccc1-c1nnc(NC(=O)c2ccc3c(c2)OCCO3)o1 | -6% | x | 26% | x | x | x | 7.3% | 10%[46.1 µM]

The closing 5 compounds of the part above come first, to join the parts.
SMILES | Cruzain inh noDet | SARS PLpro yeast | StopGo reporter | MARV entry inh | RE007 growth inh | NS1 function inh | Cruzain inh Det | Lassa entry inh
Cc1cn2c(=O)cc(COc3ccccc3NC(=O)c3ccco3)nc2s1 | 4% | x | -17% | -3%[46.1 µM] | x | x | 0.9% | -12%[46.1 µM]
COc1ccc(-c2noc(CCC(=O)NC3CCCCC3)n2)cc1 | x | 13% | 2% | x | -15% | -10% | x | x
CC(C)c1ccc(N2C=Nc3ccc(C(C)C)cc3C2)cc1 | x | 2% | u | u | -19% | -10% | x | u
Cc1cc(C)n(-c2nnc(Nc3ccc(C)c(Cl)c3)c3ccccc23)n1 | -8% | x | 0% | -4%[46.1 µM] | x | x | -12% | 3%[46.1 µM]
CSc1ccccc1-c1nnc(NC(=O)c2ccc3c(c2)OCCO3)o1 | -6% | x | 26% | x | x | x | 7.3% | 10%[46.1 µM]
CC(C)[C@H](NC(=O)OCc1ccccc1)C(=O)OCC(=O)NCc1ccco1 | x | x | 1% | -9%[46.1 µM] | -5% | x | x | -14%[46.1 µM]
COc1cccc(N2CCN(C(=O)c3cccc(NC4=NC5CS(=O)(=O)CC5S4)c3)CC2)c1 (stereo not drawn) | x | -9% | -17% | x | 0% | 19% | x | x
CCOC(=O)CNc1ccc2c(c1)OCO2 | -13% | -12% | 25% | -21% | -5% | 9% | -1.4% | 3%
COc1cc(C(=S)N2CCOCC2)ccc1OC(=O)c1ccccc1 | x | -3% | -11% | x | 16% | 2% | x | x
COc1ccc(C2CC(c3cccs3)=NN2C(=O)CSc2nc3c(cnn3-c3ccccc3)c(=O)[nH]2)cc1 (stereo not drawn) | 32µM* | -9% | u | -31% | -5% | 28% | -8.8% | 23%
Cc1cc(OCC(=O)NCc2ccncc2)c2c3c(c(=O)oc2c1)CCCC3 | x | -11% | -19% | x | -4% | -13% | x | x
Cc1cccc2c1NC(C)CC2C (stereo not drawn) | 3% | 8% | -19% | 7% | u | 1% | 4.2% | -18%
CC1(C)CC(=O)C/C(=N\NC(=O)C2C3CCCCC32)C1 (stereo not drawn) | x | -1% | 4% | 1%[46.1 µM] | 2% | 3% | x | 11%
O=C(Cn1cnc2ccccc21)c1ccc(Br)cc1 | x | -1% | 19% | 25%[46.1 µM] | -15% | 3% | x | 20%
